# Prx2 Sm inh – Schistosoma mansoni Prx2 inhibition; S. mansoni Prx2 activity coupled to TGR/GSH (TGR is thioredoxin glutathione reductase), NADPH fluorescence loss, qHTS; some inactives read as strong as hits; Potency, µM; actives 0.07% (n = 65,000); active means full or partial inhibition curve with a strong effect at the top dose; inconclusive means weaker partial or single-point curve; inactive means no accepted curve; note: series up to 57 µM; many of its hits are not listed in these tables
#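 Prx2 activity was followed as the loss of NADPH fluorescence (ex 365/em 450 nm), read every 30 sec for 8 min after H2O2 start. The enzyme mix (50 nM Prx2, 25 nM TGR, GSH, NADPH; pH 7.4 phosphate buffer) was incubated with compound for 15 min at room temperature first.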
# LT uptake inh – anthrax lethal toxin internalization inhibition | Cells, anthrax lethal toxin internalization, FRET ratio (460/530) | AID 912 | actives 0.67% (n = 70,000) | Potency, µM (titrated, usually from 40 µM), for inactives: at the highest dose activity change, negative = inhibition, hits mostly inhibitors; active = well fitted falling ratio curve with the 530 nm signal flat; inconclusive = other ratio curves, or a change in one channel alone; inactive = flat curves in the ratio and both channels; the % refers to the ratio; note: % is set by controls: 0 for no effect and ±100 for the full control effect; nearly all actives have a fitted effect of over 50% in size; tested in ME-180 cells; beta-lactamase reporter
# Starred values were filed as active, the others as inactive; ? = inconclusive; · = not tested or not shown; & = joins results of further samples; [ ] = another dose, or the depositor's remark. Potency is the fitted concentration of half-maximal effect.
# Second line of a record: Prx2 Sm inh, LT uptake inh
Cc1c(NC(=O)C2(C)CCCCC2)c(=O)n(-c2ccccc2)n1C
    ·, 4%
CCOC(=O)CCc1c(C)nc2c(c(C)nn2C(C)(C)C)c1C
    >57, ?
CC(C)CCON=O
    ·, 1%
CCCc1cc(C(=O)NC2CCCC2)no1
    >57, -3%
COc1ccc(N2CCN(C(=O)c3cc4c(-c5ccc(Cl)cc5)nn(C)c4s3)CC2)cc1
    >57, ?
O=C(O)C1CCCN1C(=O)OCc1ccccc1 (centres undefined)
    >57, 3%
CCCCOc1ccc(-c2nnn(C(C)C(=O)OCC)n2)cc1 (centres undefined)
    >57, -30%
O=C(Nc1ccccc1)N1CC=C(c2ccc(F)cc2)CC1
    >57, -3%
Cc1ccc(-c2nc3cc(N)ccc3o2)cc1
    ·, 5%
Cc1onc(-c2ccccc2Cl)c1C(=O)N1CCN(c2ccccc2)CC1
    >57, -9%
O=C(CC(NS(=O)(=O)c1ccc(Cl)cc1)c1ccco1)NCc1ccco1 (centres undefined)
    >57, -8%
O=C(NCCCN1CCCCC1)c1ccc2c(=O)n(CCc3ccccc3)c(=O)[nH]c2c1
    >57, -10%
COc1cc(COCC(O)CN2CCOCC2)cc(OC)c1OC (centres undefined)
    >57, -4%
CCc1cc(=O)oc2cc(OCc3nn[nH]n3)ccc12
    >57, -13%
CN(C)C1=C(C#N)C(c2ccccc2)=NP(N(C)C)(N(C)C)=N1
    >57, -13%
COc1ccc(-c2ccc(N)[n+](CCCC(=O)O)n2)cc1
    >57&>57, ?
COCCn1c(C)c(C(=O)O)sc1=S
    ?, -1%
CC(=O)Nc1ccc(OC(=O)N2CCCCC2)cc1
    >57, -8%
Cc1ccccc1CSc1nnc(-c2ccccn2)n1N
    >57, 8%
CCC(C)[C@H](NC(=O)NCc1cccc(OC)c1)C(=O)O (some centres undefined)
    >57, -14%
CCOC(=O)c1cnc(SCC(=O)Nc2nnc(CC)s2)nc1N
    >57, -14%
C=C(C)COc1ccc(-c2n[nH]c(C)c2-c2ccccc2)c(O)c1
    ·, ?
COc1cccc(Cn2c(=O)c(-c3cccc(C#N)c3)nc3cnc(N4CCOCC4)nc32)c1
    >57, ?
CCOC(=O)c1cnc2ccc(C(=O)OC)cc2c1NCc1ccco1
    >57, -4%
COc1cccc(C(=O)NC2CCN(CC(=O)NCc3ccccc3OC)CC2)c1
    >57, -2%
Cc1cc(C)cc(NC(=O)CSc2nnc(-c3ccccc3Br)o2)c1
    >57, ?
CSc1cccc(NC(=O)CSc2ccccc2)c1
    >57, ?
Cc1noc(C)c1C(=O)NC(C)c1ccc2c(c1)OCO2 (centres undefined)
    >57, 3%
N#Cc1nc(-c2ccccc2)oc1NCCN1CCCCC1
    ·, -5%
Nc1cccc(C(=O)Nc2ccco2)c1
    >57, -8%

# Given with tabs: 5 of the compounds above.
SMILES	Prx2 Sm inh	LT uptake inh
CCOC(=O)c1cnc(SCC(=O)Nc2nnc(CC)s2)nc1N	>57	-14%
COc1cc(COCC(O)CN2CCOCC2)cc(OC)c1OC (centres undefined)	>57	-4%
COc1cccc(Cn2c(=O)c(-c3cccc(C#N)c3)nc3cnc(N4CCOCC4)nc32)c1	>57	?
O=C(Nc1ccccc1)N1CC=C(c2ccc(F)cc2)CC1	>57	-3%
COCCn1c(C)c(C(=O)O)sc1=S	?	-1%

# The results go on.
# Second line of a record: Prx2 Sm inh, LT uptake inh
COc1ccc(NS(=O)(=O)c2ccc(O)c(C(=O)OCC(=O)N3CC(C)OC(C)C3)c2)cc1 (centres undefined)
    >57, 2%
COc1cccc2c(C)c(C(=O)O)[nH]c12
    >57, 16%
O=C(N/N=C1/C[C@@H](O)[C@@H](O)[C@@H]2[C@H]3C(=O)N(c4ccc(F)cc4F)C(=O)[C@@H]3CC[C@@H]12)OCc1ccccc1
    ·, -9%[8 µM]
O=C(Cc1cn2ccsc2n1)OCc1ccccc1
    >57, 17%
COC(=O)COc1ccc(S(=O)(=O)N2CCOCC2)cc1
    >57, 1%
C=C[C@@]1(C)CC(=O)[C@@]2(O)[C@@]3(C)[C@@H](O)CCC(C)(C)[C@@H]3[C@H](O)[C@H](OC(C)=O)[C@@]2(C)O1
    >57, -8%
CC(C)c1nc(SCc2ccccn2)c2c(=O)n(C)c(=O)n(C)c2n1
    >57, 7%
Cc1nc(SCC(C)C)[nH]c(=O)c1Cc1ccccc1
    >57, 9%
O=C1OCCC1Sc1ncnc2sc3c(c12)CCC3 (centres undefined)
    >57, -10%
CCSc1nnc([C@@H](N)Cc2c[nH]c3ccccc23)o1
    >57, -11%
CCC1CCCCN1S(=O)(=O)c1ccc(C(=O)Nc2nnc(-c3ccccc3Cl)o2)cc1 (centres undefined)
    >57, 4%
COc1ccc(C2C(C(=O)NCc3ccccn3)c3ccccc3C(=O)N2C)cc1OC (centres undefined)
    >57, 13%
c1coc(CSCc2cn3cccnc3n2)c1
    >57, 12%
COc1ccc(Cl)cc1C(=O)Nc1ccc2c(c1)OCO2
    >57, -9%
COc1ccc(C2C(C#N)=C(N)OC3=C2C(=O)CC(C)C3)c(OC)c1OC (centres undefined)
    ·, -6%
Cn1cnc2c(NCc3ccccc3)nc(NCCO)nc21
    >57&>57, ?
O=C(N1CCOCC1)N(Cc1ccccc1)c1ccccn1
    >57, ·
NC(=O)c1ccc[n+]([C@@H]2O[C@H](COP(=O)([O-])OP(=O)(O)OC[C@H]3O[C@@H](n4cnc5c(N)ncnc54)[C@@H](O)[C@@H]3O)[C@@H](O)[C@@H]2O)c1
    >57, -9%[3.58 µM]
COc1cc(OC)nc(NC(=O)CN2CCN(c3ccc(F)cc3)CC2)n1
    >57, ·
Cc1ccc(NC(=O)NCCCN2CCOCC2)cc1
    >57, -4%
NCCC[C@@H](CC(=O)N[C@@H]1CCNC[C@H]1C(=O)N[C@H](CC(=O)N[C@@H](CCC(=O)O)CC(=O)O)Cc1c[nH]c2ccccc12)NC(=O)C[C@H](Cc1c[nH]c2ccccc12)NC(=O)[C@@H]1CNCC[C@H]1N
    >57, 9%
Cc1ccc(N2CCN(c3ccc(C)cc3)C2c2ccncc2)cc1
    >57, ?
CCc1ccccc1S(=O)(=O)Cc1ccc(C(=O)NC(C)C)o1
    >57, -12%
CCOC(=O)c1c(NC(=O)CSc2n[nH]c(-c3ccco3)n2)sc(C)c1C
    >57, -12%
C[C@@H]1C[C@@]2(C)Oc3ccccc3[C@H]3OC[C@]1(COC(=O)Nc1ccccc1)[C@@H](C)[C@@H]32
    >57, -11%
Cc1cc(O)c(-c2cc(C(=O)NCc3ccc4c(c3)OCO4)[nH]n2)cc1C
    >57, 9%
O/N=C1\CCC2CN(C3CCCCC3)CC2C1 (centres undefined)
    >57, 9%
CC1Cn2c(nnc2-c2cc3ccccc3cc2O)S1 (centres undefined)
    >57, ?
O=C(CCNC(=O)Cn1cnc2ccccc2c1=O)NCC1COc2ccccc2O1 (centres undefined)
    >57, 3%
COc1ccc(C(=O)O)cc1S(=O)(=O)Nc1cccc(C)c1
    >57, -5%

# Second line of a record: Prx2 Sm inh, LT uptake inh
Cc1ccc(C(=O)CSc2nnc(-c3ccco3)o2)o1
    >57, -3%
O=C(CSc1ccccc1C(=O)NCCCN1CCCC1=O)NCc1ccco1
    >57, -13%
O=C(CCNS(=O)(=O)c1ccc(Br)cc1)NCc1ccc2c(c1)OCO2
    >57, 1%
Cc1ccc(C)c(-n2c(SCC(=O)Nc3nnc(C)s3)nnc2-c2ccoc2C)c1
    >57, -12%
O=C1N=C(N2CCOCC2)S/C1=C1\C(=O)N(Cc2ccccc2)c2ccc(Br)cc21
    >57, 8%
CC(=O)Nc1ccc(SCC(=O)N(CCC#N)c2ccc(C)cc2)cc1
    >57, 4%
CCc1nc2ccccc2n1CC(=O)N1CCN(S(=O)(=O)c2cccc(C(F)(F)F)c2)CC1
    >57, -3%
Oc1ccc(N2CCN(c3ncnc4sc5c(c34)CCC5)CC2)cc1
    >57, ?
CSC1=NC2(CCCCC2)C2=C(CCCC2)N1
    >57, ?
CCOC(=O)c1cccc(NC(=O)CCc2nc(-c3ccccc3F)no2)c1
    >57, -4%
CCCc1nc(C)c(-c2ccc(OC)c(OC)c2)c(=O)[nH]1
    ·, -14%
Cn1c(=O)[nH]c(=O)c2c1ncn2CCN1CCCCC1
    >57, -18%
O=C(Nc1cccnc1)C1CC(c2ccc(Cl)c(Cl)c2)=NO1 (centres undefined)
    >57, 16%
COC(=O)c1ccc(CN2C(=O)c3ccccc3S2(=O)=O)cc1
    >57, -13%
COc1ccc(OC)c2sc(N3CCN(c4ccccc4)CC3)nc12
    >57, -7%
O=C(Nc1ccccc1)N(CCCN1CCOCC1)Cc1ccccc1F
    >57, 1%
Cc1cc(C)c2[nH]c(=O)c(C(c3nnnn3Cc3ccc4c(c3)OCO4)N3CCCCC3)cc2c1 (centres undefined)
    >57, -7%
O=C(Nc1ccccn1)c1cccc(S(=O)(=O)N2CCCCC2)c1
    >57, 10%
O=C1CSC(c2cn(-c3ccccc3)nc2-c2ccccc2)N1Cc1ccco1 (centres undefined)
    >57, ?
COc1ccc(OC)c(-c2nnc(SCC(=O)N3CCCc4ccccc43)o2)c1
    >57, 5%
Cc1ccc(S(=O)(=O)N2CCN(C(=O)c3ccccc3)C2C(C)C)cc1 (centres undefined)
    >57, -4%
O=C(c1cnccn1)N1CCC2(CC1)CN(C(c1ccccc1)c1ccccc1)C2
    >57, 14%
c1ccc(-c2ccc(N3CCCC4(CCNCC4)C3)cc2)cc1
    >57, ?
CCOCCCNC(=O)C1CCN(S(=O)(=O)N2CCCCC2)CC1
    >57, ·
CC(C)Sc1nnc([C@H](C)NC(=O)OC(C)(C)C)o1
    >57, ?
CN(Cc1ccccc1)C(=O)C1CCN(Cc2ccc(F)cc2)CC1
    >57, 8%
CCOC(=O)C(C)c1nn(C)c(=O)c2ccccc12 (centres undefined)
    >57, -20%
Cn1c(SCc2cc(=O)n3cc(Br)ccc3n2)nnc1C1COc2ccccc2O1 (centres undefined)
    >57, -5%
Cc1cc(C)nc(N2CCCC(C(=O)Nc3ccc4nc(C)c(C)nc4c3)C2)n1 (centres undefined)
    >57, 10%
Cn1c(SCC(=O)Nc2ccc3c(c2)oc2ccccc23)nnc1-c1ccccc1
    >57, -12%

# Second line of a record: Prx2 Sm inh, LT uptake inh
CCCc1nc(-c2ccc(-c3ccc(F)cc3)cc2)no1
    ·, ?
O=C(O)/C(=C\c1ccccc1)Cc1ccccc1
    >57, -5%[8 µM]
CC1CCCN(C(=O)CSc2nnc(-c3cccnc3)n2C2CCCCC2)C1 (centres undefined)
    >57, ?
CCCC1(C(=O)OCC)NC(c2ccc(N(C)C)cc2)C2C(=O)N(c3ccccc3)C(=O)C21 (centres undefined)
    >57, 10%
CC(NC(=O)c1cc(-c2ccc(Br)cc2)on1)c1ccccc1 (centres undefined)
    >57, -4%
CCCCc1nc2c(=O)[nH]c3ccccc3c2o1
    >57, 3%
CC(=O)NC(CCS(C)(=O)=O)C(=O)Nc1ccc2c(c1)OCCO2 (centres undefined)
    >57, -2%
COC1=CC(=O)C[C@@H](C)[C@]12Oc1c(Cl)c(OC)cc(OC)c1C2=O
    ·, 1%
CC(C)(C)P(=O)(c1ccncc1)N1CCCC1 (centres undefined)
    >57, ?
COc1nc2c(s1)C(=O)NCCC2
    >57, 7%
Cc1c(NC(=O)COc2ncnc3ccccc23)c(=O)n(-c2ccccc2)n1C
    >57, -1%
Cn1c(=O)c2c(nc(CN3CCOCC3)n2CC(=O)c2ccccc2)n(C)c1=O
    >57, ?
Cc1noc(C)c1-c1nc(N2CCN(C)CC2)c2ccccc2n1
    >11, 12%
COc1ccc(OC)c(NC(=O)Cn2cc(C(=O)c3ccco3)c3ccccc32)c1
    >57, -12%
O=C(O)CCc1ccc(-c2ccc(Cl)cc2)n1Cc1ccco1
    >57, 1%
CC1C(=O)C(C)C(c2cccs2)NC1c1cccs1 (centres undefined)
    >57, -18%
CCOC(=O)CNC(=O)c1sc(NC(=O)c2ccccc2F)nc1C
    >57, 5%
C[C@@H](Cc1ccccc1)NCCC(c1ccccc1)c1ccccc1
    >57, 0%[3.58 µM]
O=C(COC(=O)CCc1ccc(S(=O)(=O)N2CCCCC2)cc1)Nc1ccc2c(c1)OCO2
    >57, 1%
CCOC(=O)CNC(=O)c1ccccc1Br
    >57, 1%
CCCCCCn1c(N2CCC(C(N)=O)CC2)nc2c1c(=O)[nH]c(=O)n2C
    >57, -3%
COc1ccc2cc(CN(CCO)C(=O)c3ccccc3F)c(=O)[nH]c2c1
    >57, -2%
O=C(COc1ccc(-c2ccccc2)cc1)N1CCN(C(=O)c2cccnc2)CC1
    >57, -17%
Cc1cc(-c2nnc(SCC(=O)N3C(C)CCCC3C)o2)no1 (centres undefined)
    >57, ?
CCOC(=O)Cn1nnc(-c2ccc(S(C)(=O)=O)cc2)n1
    >57, ?
O=c1oc(-c2ccco2)nc2ccccc12
    >57, ?
[O-][N+]1=C(c2cccs2)CN(O)C1
    >57, 2%
[O-][n+]1onc2c1CCc1c-2nc(-c2ccccc2)n1OCc1ccccc1
    >57, -13%

# The list is partial. The share of hits here may be higher or lower than overall.
